# Screening data from PubChem.
# PINK1 expr mod = changes PINK1 expression; hit rate 0.2% among 410,000; PINK1 immunofluorescence, high-content cytometry, 24 h; AID 624263; Potency, µM (series often up to 76.6 µM), for inactives: at the top dose activation (PINK1 increase), most hits filed as activators; active = well fitted activation curve with a large enough effect; inconclusive = small, poorly fitted or top-dose-only effect; inactive = flat fitted curve, though single readings scatter; cell line not stated here;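 note: potency is the fitted concentration of half-maximal effect; % of control where 0% means no effect; nearly all actives have a fitted effect of over 65% in size; a mitochondrial uncoupler was the plate control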
#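 Compound titrations (5 concentrations, 24 h) on a stable cell line; DMSO and CCCP controls. Endpoint: fixed-cell PINK1 immunofluorescence with mitochondrial, cell and nuclear markers, scanned by microplate cytometer.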
# CtBP-E1A inh = CtBP/E1A binding inhibition; AlphaScreen GST-E1A/His-CtBP binding, 1536-well; hits give low values; control for the full effect not named in the record; AID 651724; hit rate 0.49% among 340,000; activity change, % (concentration not given with the values); in the data active means activity change below about -65%; inconclusive means about -30% to -65%; inactive means above about -30%; note: % is set by controls: 0 for no effect and ±100 for the full control effect
#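 AlphaScreen with 125 nM GST-E1A and 125 nM His-CtBP (5X stocks) in Tris pH 8.0, 300 mM NaCl, BSA, Tween 20, TCEP. Compounds preincubated 2 h at 37 deg C, then glutathione donor/nickel acceptor beads added for 1 h at 37 deg C in dark.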
# Six1-Eya2 blk = inhibitors of human Six1/Eya2 interaction | AID 651725 | Q15475+O00167 | AlphaScreen GST-Six1/His-Eya2 binding, biochemical; hits give low values; control for the full effect not named in the record | activity change, % (concentration not given with the values) | hit rate 0.56% among 360,000; in the data active = activity change below about -65%; inconclusive = about -30% to -65%; inactive = above about -30%; note: % is set by controls: 0 for no effect and ±100 for the full control effect
# Target sequence (O00167 whole entry, looked up): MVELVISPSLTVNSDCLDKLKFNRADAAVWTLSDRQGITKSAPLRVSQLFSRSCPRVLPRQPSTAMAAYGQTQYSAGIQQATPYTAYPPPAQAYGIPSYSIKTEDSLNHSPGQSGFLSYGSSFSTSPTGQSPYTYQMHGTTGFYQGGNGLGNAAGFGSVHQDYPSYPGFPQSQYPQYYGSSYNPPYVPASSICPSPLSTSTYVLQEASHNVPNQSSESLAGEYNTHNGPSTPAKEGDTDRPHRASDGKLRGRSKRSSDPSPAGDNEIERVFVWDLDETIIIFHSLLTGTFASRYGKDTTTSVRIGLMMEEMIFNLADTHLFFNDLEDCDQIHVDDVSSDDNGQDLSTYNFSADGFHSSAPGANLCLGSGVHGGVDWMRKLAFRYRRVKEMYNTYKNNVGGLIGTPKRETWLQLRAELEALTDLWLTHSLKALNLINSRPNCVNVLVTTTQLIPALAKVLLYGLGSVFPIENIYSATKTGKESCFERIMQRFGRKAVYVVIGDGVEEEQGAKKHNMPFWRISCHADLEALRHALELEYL
# Target sequence (Q15475 whole entry, looked up): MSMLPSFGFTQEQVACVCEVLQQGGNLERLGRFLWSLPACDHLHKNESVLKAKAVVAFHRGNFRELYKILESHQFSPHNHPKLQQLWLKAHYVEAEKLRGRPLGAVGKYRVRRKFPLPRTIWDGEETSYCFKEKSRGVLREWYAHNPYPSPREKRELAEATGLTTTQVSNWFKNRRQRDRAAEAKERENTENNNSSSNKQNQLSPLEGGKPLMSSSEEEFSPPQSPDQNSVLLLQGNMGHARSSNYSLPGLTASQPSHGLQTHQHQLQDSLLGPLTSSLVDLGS
#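 GST-Six1 + His-Eya2 (5X stock: 250/500 nM); Tris pH 8.0, 300 mM NaCl, 0.05% BSA, 0.02% Tween 20; GSH donor/Ni acceptor beads; 1 h 37 °C dark; AlphaScreen readout.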
# TRPML1 blocker = human mucolipin-1 channel inhibition; TRPML1-inducible cells, Ca2+ dye fluorescence, FDSS; hits give low values; inhibition of EC80 agonist-evoked calcium signal; Q9GZU1; activity change, negative = inhibition, % (test concentration not listed); hit rate 0.02% among 390,000; in the data active means activity change below about -50%; inconclusive means about -30% to -50%; inactive means above about -30%;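 note: stimulus is agonist 54-4 at its EC80 concentration; % is set by controls: 0 for no effect and ±100 for the full control effect; compound concentration not given in the record; the text of the record puts the active cut at -80%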
#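 Calcium fluorescence in TRPML1-DL cells induced overnight with Tet: a 110 s read after compound pin addition, then a 110 s antagonist read after challenge with 54-4 at 4 uM final (EC80).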
# D2 ag = agonists of human D2 dopamine receptor (beta-arrestin); DiscoveRx PathHunter D2 beta-arrestin, luminescence, 90 min; 100% = 57 uM dopamine signal; hit rate 0.084% among 360,000; AID 624465; P14416; activation, % (test concentration not listed); in the data active = activation above about 40%; inconclusive = about 15% to 40%; inactive = below about 15%; note: compound concentration not given in the record; the text of the record calls up to 30% inactive
#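 DiscoveRx PathHunter D2 beta-arrestin cells (2,100/well) attached overnight, then compound-stimulated 90 min at 37 C in HBSS/10 mM HEPES/0.1% Tween-20 buffer; beta-galactosidase complementation read by luminescence after 1 h at ambient temperature. Dopamine 57 uM final (EC100) as control.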
# TRPML1 agonist = human mucolipin-1 channel agonism; TRPML1-expressing cells, Ca2+ dye fluorescence, FDSS; host cell line not named in the record; reference of the full effect not given here; activation, % (no concentration beside the values); hit rate 0.12% among 410,000; AID 624414; in the data active = activation above about 50%; inconclusive = about 30% to 50%; inactive = below about 30%; note: 0% is about no effect; the text of the record puts the active cut at 80%
#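 Kinetic FDSS Ca2+ read in Tet-induced TRPML1-DL cells (ABD Ca8 dye plus quencher, 45-90 min RT loading): baseline, then compound, then 110 s agonist window; EC80 agonist 54-4 at 4uM final added afterwards for a 110 s antagonist window.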
# * marks the source's active call; other numbers are inactive results; ? = inconclusive; . = no result given; & = joins results of further samples; [ ] = dose if it differs, or a comment. Outcome played no part in choosing rows. About 1% of those tested had a hit in this group.
SMILES,PINK1 expr mod,CtBP-E1A inh,Six1-Eya2 blk,TRPML1 blocker,D2 ag,TRPML1 agonist
Cc1cc(C(=O)COC(=O)CC2Sc3ccccc3NC2=O)c(C)n1-c1ccc2c(c1)OCO2 (centres undefined),-1.4%,.,-2,-1,-6.3,1.9
Cc1ccc(C)c(NS(=O)(=O)c2ccccc2C)c1,6.8%,11,-13,5,-2.4,2.1
O=C(NCC1CCCO1)c1c(O)c2ccccc2[nH]c1=O (centres undefined),6.9%,-3,1,-15,-2.8,0.0
CCOc1ccc(S(=O)(=O)NC(C)C(=O)NCc2ccc3c(c2)OCO3)cc1 (centres undefined),-3.5%,-15,11,-19,0.0,0.3
O=C(NN1CC(C(=O)OCc2ccccc2F)CC1=O)c1ccccc1 (centres undefined),0.4%,1,-4,-5,-4.7,0.0
COc1cc(Cl)c(C)cc1NC(=O)COC(=O)/C=C/c1c(C)nn(C2CCS(=O)(=O)C2)c1Cl (centres undefined),-0.5%,-1,3,-22,1.8,1.3
CCCc1n[nH]c(=O)[nH]1,1.0%,1,3,-20,-1.3,0.2
COCc1cc(C)nc(SCc2ccc(F)cc2)c1C#N,2.7%,39,40,-2,-4.0,2.2
CCc1nc(SCC(=O)Nc2ccccc2C(=O)OC)n[nH]1,-0.5%,-10,4,7,-2.5,-0.4
Fc1ccccc1NC(=S)N/N=C/c1ccccc1Br,2.5%[38.3 µM],-3,-6,7,-1.5,1.9
C=CCOc1ccc(/C=C2/C(=O)ON=C2C)cc1OC,4.6%,7,10,-9,4.9,-0.4
CCC(CO)Oc1cc(NCc2cccc(O)c2)c2ncn(C(C)C)c2c1 (centres undefined),-0.2%,-3,-12,78,4.5,1.6
COc1ccccc1N(CC(=O)N1CCc2ccccc2C1)S(C)(=O)=O,0.2%,.,3,27,-0.7,0.5
CC1CCN(C(=O)CSc2nc(-c3ccc(F)cc3)cc(C(F)(F)F)n2)CC1,1.4%,.,.,5,.,0.1
CC(C)S(=O)(=O)c1oc(-c2ccc(F)cc2)nc1S(=O)(=O)c1ccc(F)cc1,-0.9%,.,.,18,.,-0.2
CCOC(=O)c1c(NC(=O)COc2ccccc2F)sc2c1CC(C)(C)NC2(C)C,3.7%,5,-1,9,-4.0,-0.5
O=C1CCC(C(=O)N2CCC(CO)CC2)CN1Cc1ccc(Cl)cc1 (centres undefined),4.8%,15,3,-3,0.9,1.0
COc1ccc(-c2csc(Nc3ccccn3)n2)cc1OC,-2.0%,-4,-1,-13,1.5,1.2
C=CCn1c(N2CCN(c3ccc(OC)cc3)CC2)nc2c1c(=O)[nH]c(=O)n2C,-1.0%,2,-4,-1,2.3,-0.2
CCOC(=O)[C@H]1[C@H]2COc3ccc(Cl)cc3[C@@H]2N2C(=O)CN(Cc3ccco3)C(=O)[C@@]12C,-0.3%,-26,3,6,0.8,0.2

# An excerpt from above in order of their number in Six1-Eya2 blk, descending:
mol	PINK1 expr mod	CtBP-E1A inh	Six1-Eya2 blk	TRPML1 blocker	D2 ag
O=C1CCC(C(=O)N2CCC(CO)CC2)CN1Cc1ccc(Cl)cc1 (centres undefined)	4.8%	15	3	-3	0.9
O=C(NCC1CCCO1)c1c(O)c2ccccc2[nH]c1=O (centres undefined)	6.9%	-3	1	-15	-2.8
Fc1ccccc1NC(=S)N/N=C/c1ccccc1Br	2.5%[38.3 µM]	-3	-6	7	-1.5
CCC(CO)Oc1cc(NCc2cccc(O)c2)c2ncn(C(C)C)c2c1 (centres undefined)	-0.2%	-3	-12	78	4.5

# Carrying on.
SMILES,PINK1 expr mod,CtBP-E1A inh,Six1-Eya2 blk,TRPML1 blocker,D2 ag,TRPML1 agonist
Nc1c(NC(=O)CC[n+]2ccccc2)cccc1[N+](=O)[O-],6.8%,13,4,0,-2.3,0.0
NC(=O)c1ccc(NC(=O)CN2C(=O)NC(c3ccccc3)(c3ccccc3)C2=O)cc1,2.5%,.,0,-8,-2.6,3.9
CN[C@H]1C[C@H]2c3cc(N4CCN(C)CC4)ccc3CCN2C(=O)[C@H]1[C@H](C)O,0.2%,-10,1,35,-7.0,-0.2
O=C(c1ccc(S(=O)(=O)N2CCCC2)cc1)N1CCN(c2ccccc2F)CC1,-0.5%,9,-7,-4,-3.7,2.0
C=CCn1c(=NC(=O)C2COc3ccccc3O2)sc2cccc(OC)c21 (centres undefined),0.9%,-14,1,6,-2.8,0.5
Cc1cc(NC(=O)c2ccc(Br)c(S(=O)(=O)N3CCCC3)c2)no1,5.0%,-4,-3,-12,-0.7,-0.2
CN(C)c1nc(NCc2ccccc2)nc(N/N=C/c2cccc(Br)c2)n1,3.7%,.,-8,-8,-1.3,1.9
Cc1cc2nncn2c2ccccc12,-0.4%,-2,2,-12,-2.6,-1.0
CCCCCn1c(CN2CCCCC2CC)nc2c1c(=O)n(C)c(=O)n2C (centres undefined),0.0%,0,0,7,0.0,0.4
COc1ccc(NC(=O)C(=O)NCC2(c3ccc(OC)c(OC)c3)CCCC2)cc1,-1.2%,.,.,-6,.,1.2
O=C(c1ccc(CNS(=O)(=O)c2cccc(Cl)c2)cc1)N1CCCC1,-0.6%,1,5,21,1.0,-0.5
CCN(CC(=O)NCc1cccs1)CC(=O)Nc1ccccc1C,-1.3%,.,0,3,-1.6,-0.7
Cc1cc(=O)oc2c3c(cc(OCC(=O)Nc4ccc(CCO)cc4)c12)OC(C)(C)CC3,0.4%,-22,-21,.,7.3,.
CCN(c1cccc(C)c1)S(=O)(=O)c1ccc(N2CCCCS2(=O)=O)cc1,3.0%,.,.,26,.,0.4
CSc1ncccc1C(=O)OCC(=O)C(C)(C)C,-0.5%,10,5,16,-3.9,-0.2
CCNS(=O)(=O)c1cc(S(C)(=O)=O)ccc1Cl,4.7%[38.3 µM],6,0,20,-1.5,0.4
CC(=O)Nc1cccc(OCCCNS(=O)(=O)c2ccc(F)cc2)c1,7.8%,.,-2,14,-4.3,-0.7
Cc1ccc(-n2c(CSc3nc(C)cc(C)n3)n[nH]c2=S)cc1,-0.3%,3,4,18,2.7,-0.4
O=C(NCCCn1ccnc1)C(=O)NCC1OCCCN1S(=O)(=O)c1ccccc1 (centres undefined),-1.0%,-17,-6,-8,-0.2,0.4
CCOc1ccc(C(=O)NC(Cc2ccccc2)C(=O)OC)cc1 (centres undefined),-1.3%,0,5,7,-0.3,0.4
Cc1c(Cl)cccc1NC(=O)Nc1cc(C(C)(C)C)on1,9.4%,.,5,5,-0.3,2.3
CCc1ccc(NC(=O)CSc2nc(=O)n(CCCN3CCOCC3)c3c2CCC3)cc1,-6.6%,4,-3,8,-2.5,3.9
COc1cc2c(C(=O)N3CCN(c4cccc(C)c4)C(C)C3)cn(CC(C)C)c(=O)c2cc1OC (centres undefined),1.1%,.,.,-11,.,-0.7
CCSc1nnc(N)s1,-0.2%[38.3 µM],-1,3,-10,0.4,0.1
CN(C)c1ccc(Cl)cc1N,2.1%,-5,0,-5,1.4,-0.1
CC(C)(C)[C@@H]1C=C(C(=O)N2CCOCC2)O[C@H](OCc2ccc(CO)cc2)C1,1.1%,2,-15,4,-0.6,-0.3
COc1cc(OC)cc(C(=O)Nc2ccc(C(=O)Nc3ccccc3OC)cc2)c1,-0.6%,-10,-9,-11,-3.9,3.4
Cc1nc(CSc2nnc3scc(-c4ccccc4)n23)cs1,0.1%,7,1,-1,-1.3,-0.3
Cc1nc2ccccc2n1CCc1nc2c3ccccc3nc(SCc3ccc(F)cc3)n2n1,0.9%,.,.,-6,.,1.0
O=C(NCC(c1ccco1)N1CCCCC1)c1cccs1 (centres undefined),2.4%,-1,-3,17,0.5,0.5
CCc1cccc(NC(=O)C2CCCC2)c1,1.0%,5,2,-8,-1.9,-0.5
CCOc1ccc(NC(=O)Nc2cccc(C)n2)cc1,-0.5%&-0.1%,-5,-3,-12&1,-3.2,1.4&-0.7
COc1ccc(NC(=O)N(C)C[C@H]2Oc3c(NC(=O)C4CC4)cccc3C(=O)N([C@H](C)CO)C[C@@H]2C)cc1,1.9%,-2,5,17,-1.4,0.4
COc1ccc(/C=C2\CCCC3C2=NN(C(=O)c2scnc2C)C3c2ccc(OC)cc2)cc1 (centres undefined),-1.4%[38.3 µM],2,-3,17,-3.0,1.2
COc1ccccc1C(=O)NC(=S)Nc1ccc(N2CCCC2)cc1,-0.3%,-28,-24,-26,-0.6,0.8
CCC(=O)N1CCCc2ccccc21,-0.4%,.,1,-12,-2.4,0.9
O=C1CCC/C=C\C[C@@H](CC(=O)N(CCO)Cc2ccccc2)C(=O)N[C@H](Cc2c[nH]c3ccccc23)CO1,1.1%,2,1,-13,4.5,-0.6
O=C(Cn1cc([N+](=O)[O-])ccc1=O)N1CCCc2ccccc21,-1.2%,-24,3,8,-6.6,0.5
O=C(O)c1cccc(-n2cccc2/C=C2/NC(=O)N(c3ccc(Cl)cc3)C2=O)c1,1.3%,?,-76*,-6,-0.1,-0.8
CNC[C@H]1Oc2c(NS(=O)(=O)c3ccc(F)cc3)cccc2C(=O)N([C@H](C)CO)C[C@@H]1C,2.3%,7,4,17,-1.5,0.3

# With a hit mark in Six1-Eya2 blk, of those listed so far:
molecule | PINK1 expr mod | CtBP-E1A inh | Six1-Eya2 blk | TRPML1 blocker | D2 ag
O=C(O)c1cccc(-n2cccc2/C=C2/NC(=O)N(c3ccc(Cl)cc3)C2=O)c1 | 1.3% | ? | -76* | -6 | -0.1

# The listing continues:
SMILES,PINK1 expr mod,CtBP-E1A inh,Six1-Eya2 blk,TRPML1 blocker,D2 ag,TRPML1 agonist
CCC(=O)N1CCc2cc(S(=O)(=O)CCC(=O)N3CCN(c4cccc(C)c4C)CC3)ccc21,-0.4%,.,.,-3,.,-0.4
COc1ccc(OC)c(N(CC(=O)NCCSc2ccccc2)S(C)(=O)=O)c1,-1.2%,10,0,-1,-2.5,-0.8
O=C(COC(=O)c1cc([N+](=O)[O-])ccc1NCCO)Nc1cccnc1Cl,2.4%,-2,-8,9,-1.3,-0.6
O=[N+]([O-])c1ccc(Sc2ncc3ccccn23)nc1,0.8%,.,-4,12,-5.2,-0.8
COc1ccc(CCNC(=O)c2ccncc2)cc1OC,-3.8%,-1,-2,-2,-0.5,-0.6
O=C(NCCCN1CCOCC1)c1cc2c([nH]c3ccccc32)c(-c2cccc(Br)c2)n1,2.4%,1,-13,-11,3.2,0.1
COc1ccc(-n2c(SCC(=O)N3CCCc4ccccc43)nc3c([nH]c4ccccc43)c2=O)cc1,-3.8%,.,.,-8,.,0.2
Cc1ccc(NC(=O)c2cnccn2)c(OC(F)F)c1,-5.6%[38.3 µM],3,2,-6,1.7,0.7
O=C(O)/C=C/C(=O)NNC(=O)c1cc(-c2ccccc2)n[nH]1,1.1%,0,-24,3,4.2,-0.6
C[C@]12CCC(=O)C=C1C=CC1C2CC[C@@]2(C)C1CC[C@@]21CCC(=O)O1 (some centres undefined),0.5%,8,1,5,2.4,0.4
CC(C)c1onc(C(=O)NCCc2ccccc2)c1[N+](=O)[O-],-1.7%,1,9,22,-5.7,-0.1
c1csc(-c2csc(-c3cccs3)n2)c1,-1.2%,41,61,14,-1.8,2.5
